Compound activity: PubChem, National Center for Advancing Translational Sciences (NCATS)
Vaccinia mCherry = vaccinia inhibition (mCherry reporter); Vaccinia virus mCherry reporter infection, fluorescence; about a quarter of the inactives have no number; Potency, µM (top dose mostly 36.5 µM), for inactives: top-dose activity change, negative = inhibition, usual class: inhibitors; hit rate 0.63% among 310,000; active = well fitted inhibition curve with a large enough effect; inconclusive = small, poorly fitted or top-dose-only effect; inactive = no such curve, though single readings can be large or run the other way; tested in A549 cells; also: nearly all actives have a fitted effect of over 35% in size; inactives centre near -10
Vaccinia Venus = inhibitors of vaccinia virus (Venus reporter); Potency, µM (top dose mostly 36.5 µM), for inactives: at the highest dose activity change, negative = inhibition, hits mostly inhibitors; Vaccinia virus Venus reporter expression, fluorescence; hit rate 0.46% among 330,000; active means well fitted inhibition curve with a large enough effect; inconclusive means small, poorly fitted or top-dose-only effect; inactive means no such curve, though single readings can be large or run the other way; tested in A549 cells; also: nearly all actives have a fitted effect of over 30% in size; inactives centre near -10
An asterisk follows results filed as active; i = inactive; ? = inconclusive; nt = not tested or not shown; [ ] = another dose, or the depositor's remark. % is scaled to controls: 0 for no effect and ±100 for the full control effect; potency is read from the fitted curve at half-maximal effect.

Every second line gives: Vaccinia Venus	Vaccinia mCherry
> Cc1cc2c(cc1S(=O)(=O)CCC(=O)N1CCCC(C)C1)OCC(=O)N2 (configuration not stated)
  6%	-4%
> CCCCOc1ccc(C(=O)NNC(=S)NC(=O)CC)cc1
  -27%	-10%
> Cc1noc(C)c1COc1cccc(C(=O)OCC(=O)NC(=O)c2ccc(OC(F)F)cc2)c1
  -1%	-11%
> CN(CCc1ccccc1)C(=O)c1ccc(NC(=O)Cc2ccc(NC(=O)C3CCN(C(=O)C4CCCCC4)CC3)cc2)cc1
  -23%	?
> COc1cc(OC)c(C(=O)Nc2ccccc2-c2ccccc2)cc1OC
  -13%	-20%
> O=S(=O)(/C=C/c1ccccc1)NCCc1ccccn1
  -6%	-11%
> Cc1cc2oc(=O)cc(CN3CCCCC3C)c2cc1C(C)C (configuration not stated)
  6%	4%
> Cc1c(C(=O)NC(C)c2ccccc2)sc2nc3n(c(=O)c12)CCCC3 (configuration not stated)
  -13%	-9%
> COc1ccc(CNC(=O)C(c2ccccc2F)N(C(=O)c2csnn2)C2CC2)cc1 (configuration not stated)
  -5%	-28%
> C/C(=N\NC(=O)c1ccccc1F)c1ccccn1
  -13%	2µM*
> CCNc1nc(NCC)n2c(SCC(=O)c3ccccc3Cl)nnc2n1
  -5%	-10%
> CC(C)(C)C1CCC(CN2CCC(CN3C(=O)C(=O)NC[C@@H]3Cc3ccccc3)CC2)CC1 (some centres not stated)
  -17%	-10%
> COc1cccc(CN(C)CC(=O)NC(=O)NCc2ccccc2)c1
  -14%	-24%
> Cc1ccc(Cn2ncc3c(N4CCN(c5ccc(C)cc5)CC4)ncnc32)cc1
  -20%	-20%
> CCOC(=O)/C(C#N)=C1/C=C(C)NC(c2ccccc2O)=N1
  10µM*	?

(further entries)
Every second line gives: Vaccinia Venus	Vaccinia mCherry
> Cc1ccc(NC(=O)Cc2nc(CCl)cs2)cc1
  -11%	?
> CC(NC(=O)CN1CCN(Cc2cccc(F)c2)CC1)c1ccccc1 (configuration not stated)
  -6%	i
> Fc1cccc(Cl)c1-c1nnc2ccc(C(F)(F)F)cn12
  -11%	-1%
> Cc1cc(N/N=C/c2ccccc2)nc(NCc2ccccc2)n1
  ?	10µM*
> Fc1ccc(-c2ccc(CNCc3ccccn3)o2)cc1Cl
  -19%	-16%
> CSc1ccc(CNC(=O)C2CCC(=O)N(CC3CCCCC3)C2)cc1 (configuration not stated)
  -16%	i
> COc1cccc(CNC(=O)Cc2csc(NC(=O)Nc3ccccc3OC)n2)c1
  -13%	0%
> COC(=O)[C@]12CCCCC=C1N(Cc1ccco1)C(=O)[C@H](CC(=O)N1CCC(c3ccccc3)CC1)C2
  0%	-11%
> COC(=O)c1ccc(N2C(c3cc(OC)cc(OC)c3)=Cc3ccc(-c4cccnc4)cc3C2CC(=O)C2CC2)cc1 (configuration not stated)
  16%	21%
> COc1cccc(S(=O)(=O)N(C)C[C@H]2Oc3ncc(Br)cc3C(=O)N([C@H](C)CO)C[C@H]2C)c1
  -10%	i
> CCCCCCCCCCNC(=O)C(=O)Nc1ccccn1
  0%	nt
> COCC(C)n1c(SCC(=O)N(C)C2CCS(=O)(=O)C2)nc2ccccc2c1=O (configuration not stated)
  -10%	-3%
> Cc1ccc(-n2ncc3c(Nc4ccc5c(c4)OCCO5)ncnc32)cc1C
  -7%	-13%
> COc1ccc(C(CC(=O)O)NC(=O)c2cc3cc(Br)ccc3oc2=O)cc1OC (configuration not stated)
  6%	4%
> COc1ccc(NC(=O)c2cnc(N3CCOCC3)c3ccccc23)cc1OC
  -8%	-7%

Following part.
Every second line gives: Vaccinia Venus	Vaccinia mCherry
> Cc1cccc(S(=O)(=O)c2cn(C)c3cc(N4CCC(C)CC4)c(F)cc3c2=O)c1
  -7%	i
> CS(=O)(=O)N(CC(=O)N1CCOCC1)c1ccc2c(c1)OCO2
  -22%	nt
> CCc1ccc(-c2nc(SCC(=O)NCC3CCCO3)c(-c3ccc(C)cc3)[nH]2)cc1 (configuration not stated)
  -20%	-15%
> CCn1cc(/C=C(\NC(=O)c2ccccc2Cl)C(=O)N2CCN(C)CC2)c2ccccc21
  -11%	?
> COc1ccc(-c2nnc(N(C)C(=O)C3CCCO3)s2)cc1 (configuration not stated)
  -11%	nt
> CC1=C(C(=O)Nc2cc(C(=O)N3CCN(c4ccc(Cl)cc4)CC3)ccc2C)SCCO1
  -4%	-6%
> O=C(O)CSc1nc2c(c(C(F)(F)F)n1)CCCC2
  -3%	16%
> CCOc1ccc(CCNC(=O)Cn2nnc(-c3ccc(OC)c(OC)c3)n2)cc1OCC
  -11%	-12%
> COc1ccc(CCC(C)N2CCC(CO)(Cc3ccccc3)CC2)cc1 (configuration not stated)
  -19%	i
> C/C(Cc1ccccc1)=N/NC(=O)CNC(=O)C(c1ccccc1)c1ccccc1
  3%	-17%
> CC1=C(C(=O)Nc2ccc(C)cc2C)C(c2cccs2)n2nc(SCc3cccc(C)c3)nc2N1 (configuration not stated)
  -8%	-12%
> CC(=O)c1cc(-c2ccc(F)cc2)n(CCC(=O)NCc2ccc(C)cc2)c1C
  -10%	-13%
> Cc1cc(C)n2nc(SCN3C(=O)c4ccccc4C3=O)nc2n1
  -8%	-9%
> CCOC(=O)c1ccc2c(c1)nc(SCC(=O)c1ccco1)n2CC
  -27%	?
> COc1ccc(NCc2ccc3c(c2)OCO3)cc1Cl
  -1%	11µM*

Following part.
Every second line gives: Vaccinia Venus	Vaccinia mCherry
> CN(C)c1oc(-c2ccccc2Cl)nc1S(=O)(=O)c1ccccc1
  -21%	?
> Cc1ccc(N2CC(C(=O)OCc3nc(N)nc(Nc4ccccc4C)n3)CC2=O)cc1 (configuration not stated)
  -3%	-20%
> COc1ccc2oc(C(=O)OCC(=O)NC3CCS(=O)(=O)C3)c(C)c2c1 (configuration not stated)
  -15%	-9%
> O=C(c1ccc(Cl)cc1)c1oc2ccccc2c1CS(=O)(=O)c1ccccc1
  -16%	-23%
> CC(=O)c1cccc(NC(=O)COC(=O)C2=COCCO2)c1
  -13%	i
> O=C(NCCOCCO)C(=O)Nc1c2c(nn1-c1ccc(F)cc1)CSC2
  -14%	-9%
> CCc1nc2c(OCC(=O)c3ccc(Cl)cc3Cl)cccn2c1N(C)C(=O)c1ccncc1
  -13%	-8%
> CCOC(=O)CSc1nc2cc(C)ccc2cc1C#N
  -19%	-28%
> COc1cc(SC)ccc1C(=O)N(C)Cc1ccccc1
  -8%	-13%
> Cc1sc2ncn(CC(=O)NCCCC(=O)N(C)Cc3ccccc3)c(=O)c2c1C
  -14%	-3%
> CCCC(=O)NC(c1ccc(N(C)C)cc1)c1ccc2cccnc2c1O (configuration not stated)
  ?	?
> CSc1nc(Cl)cc(N(CCO)CCO)n1
  -10%	-22%
> CNC(=O)c1[nH]cnc1C(=O)Nc1cccc(OC)c1
  -25%	nt
> CC(C)CNC(=O)c1cccc2c1-c1ccccc1C2=O
  0%	i
> Cc1ccc(-c2ccc(/C=N/NC(=O)CN3CCCC3)o2)cc1Cl
  -3%	-10%

2 records drawn at random from those above, as already listed:
Every second line gives: Vaccinia Venus	Vaccinia mCherry
> CC(=O)c1cccc(NC(=O)COC(=O)C2=COCCO2)c1
  -13%	i
> CCc1nc2c(OCC(=O)c3ccc(Cl)cc3Cl)cccn2c1N(C)C(=O)c1ccncc1
  -13%	-8%

Nothing new here: entries from further up.
Every second line gives: Vaccinia Venus	Vaccinia mCherry
> O=C(c1ccc(Cl)cc1)c1oc2ccccc2c1CS(=O)(=O)c1ccccc1
  -16%	-23%
> CC(=O)c1cccc(NC(=O)COC(=O)C2=COCCO2)c1
  -13%	i
> O=C(NCCOCCO)C(=O)Nc1c2c(nn1-c1ccc(F)cc1)CSC2
  -14%	-9%
> CCc1nc2c(OCC(=O)c3ccc(Cl)cc3Cl)cccn2c1N(C)C(=O)c1ccncc1
  -13%	-8%
> CCOC(=O)CSc1nc2cc(C)ccc2cc1C#N
  -19%	-28%
> COc1cc(SC)ccc1C(=O)N(C)Cc1ccccc1
  -8%	-13%

Other structures follow.
Every second line gives: Vaccinia Venus	Vaccinia mCherry
> CCOC(=O)CNC(=O)N1Cc2cc(N3CCOCC3)ccc2-n2nncc2C1
  5%	i
> Oc1ccc(/C=N/NC(=S)Nc2cccnc2)cc1O
  -12%	-10%
> Cn1nnnc1SCC(=O)N1c2ccccc2Sc2ccccc21
  -10%	i
> O=C1NCCOC(=O)[C@@H](Cc2ccc(F)cc2)CC/C=C/C[C@@H]1CC(=O)N(CCO)Cc1ccccc1
  -10%	-9%
> COc1ccc(N)cc1-n1c(C)ccc1C
  -16%	?
> COc1cccc(CNC(=O)c2cccs2)c1
  -2%	-15%
> CC(C)OC(=O)c1cc(NC(=O)C2C3CCC(O3)C2C(=O)O)cc(C(=O)OC(C)C)c1 (configuration not stated)
  -24%	nt
> COc1ccc(C)cc1-n1nnnc1SCC1CCCCO1 (configuration not stated)
  -5%	-11%
> O=C1CCCCCN1C(=O)c1cccc(C(=O)N2CCCCCC2=O)c1
  -10%	nt
> CC(C)C(NS(=O)(=O)c1ccc2c(c1)OCCCO2)C(=O)O (configuration not stated)
  -5%	-12%
> COc1ccccc1NC(=O)NC1(C(=O)N2CCCCCC2)CCCCC1
  -2%	nt
> O=C1C2C3C=CC(C3)C2C(=O)N1/N=C/c1ccc(-c2ccccc2[N+](=O)[O-])o1 (configuration not stated)
  -13%	i
> Cc1ccc(NS(=O)(=O)c2cn(C)cn2)cc1
  -3%	nt
> CCNc1nc(NCC)nc(C(=O)NN)n1
  -20%	-9%
> Cc1ccc(Oc2c(C(N)=O)cc([N+](=O)[O-])cc2[N+](=O)[O-])cc1
  ?	i

(list continues)
Every second line gives: Vaccinia Venus	Vaccinia mCherry
> CCN(CC)CCCCNc1ncc2cc(-c3cc(OC)cc(OC)c3)c(NC(=O)NC(C)(C)C)nc2n1
  ?	?
> COc1ccc(-c2nnc(SCC(=O)NCC3CCCO3)n2C)cc1 (configuration not stated)
  -9%	i
> Cc1ccc(C)c(Nc2ncnc3onc(C)c23)c1
  -6%	-1%
> CSc1ccccc1NC(=O)CN(C)C(=O)Cn1c(=O)oc2ccccc21
  -1%	-18%
> CSc1ccc(CNc2nnnn2C)cc1
  0%	i
> COc1ccc(-c2ccc3ccccc3n2)cc1
  -5%	0%
> Cc1ccc(C)c(N2CCN(C(=S)Nc3ccc4nc(N5CCOCC5)cc(C)c4c3)CC2)c1
  -2%	?
> Cc1cc(C)c2c(N)c(C(=O)N3CCN(c4ncccn4)CC3)sc2n1
  -37%	nt
> COc1ccc(C2NC(=O)NC(C)=C2C(=O)Nc2ccccc2)cc1OC (configuration not stated)
  -2%	-11%
> COc1ccc(S(=O)(=O)N2Cc3ccccc3CC2C(=O)Nc2nccs2)cc1OC (configuration not stated)
  -3%	nt
> CCC(COC)Oc1cc(NCc2ccccc2)c2ncn(C(C)C)c2c1 (configuration not stated)
  ?	-12%
> Cc1cc(C)nc(NS(=O)(=O)c2ccc(Br)s2)c1
  0%	13%
> COc1ccc(N(CCCN2C(=O)c3cccc4cccc(c34)C2=O)C(=O)c2cccc(OC)c2)cc1
  -26%	?
> COc1ccc(C2=C(O)C(C)N(c3ccccc3)C2=N)cc1OC (configuration not stated)
  -6%	-13%
> Cc1ccc(NC(=O)NCc2c(-n3cccc3)sc3c2CCCC3)c(Cl)c1
  -21%	-16%

The results go on.
Every second line gives: Vaccinia Venus	Vaccinia mCherry
> Cc1cccc(S(=O)(=O)NC(=O)C2(C)CCN2C(=O)c2ccccc2CCc2ccccc2)c1 (configuration not stated)
  0%	6%
> COc1ccccc1C(=O)C1CCCN(C(=O)c2ccc3c(c2)OCCO3)C1 (configuration not stated)
  -10%	-12%
> Cc1ccc(-c2cc(C(=O)Nc3c(C)n(C)n(-c4ccccc4)c3=O)[nH]n2)c(O)c1C
  -7%	-18%
> Cc1ccccc1C(=O)NCCCNC(=O)c1ccccc1C
  -2%[7.34 µM]	-18%[7.34 µM]
> Cc1ccc(N2CCN(c3cc(C)nc4nc(C)nn34)CC2)c(C)c1
  -8%	?
> COc1ccc(CC(=O)Nc2cc(S(=O)(=O)N3CCOCC3)ccc2N2CCCC2)cc1
  3%	-2%
> CC(OC(=O)c1cnccn1)C(=O)c1ccccc1 (configuration not stated)
  -9%	-8%
> COc1ccc(C2C(C(=O)Nc3ccccc3)=C(C)Nc3nc(-c4ccccc4)nn32)c(OC)c1 (configuration not stated)
  -13%	-1%
> COc1ccc(/C=C/C(=O)Nc2nc(C)cc(C)n2)cc1OC
  -10%	-13%
> CC(C)CC1NC(=O)N(CC(=O)NC2CCCCC2)C1=O (configuration not stated)
  -5%	-12%
> CCNC(=O)C1(C)CCN(C(=O)c2ccc(N(C)C)cc2)C1 (configuration not stated)
  -1%	14%
> COCCNC(=O)C1(C)CCCN(Cc2cc(-c3ccccc3)nn2C)C1 (configuration not stated)
  -1%	i
> Cc1cc(C)c2nc(SC3CCOC3=O)cc(C)c2c1 (configuration not stated)
  -6%	i
> COC(=O)c1ccccc1NS(=O)(=O)c1ccc2c(c1)CCCN2C(C)=O
  -6%	i
> CN(C)CC(C)(C)CNC(=O)c1cnn(-c2ncc3c(n2)-c2ccccc2CC3)c1-c1ccco1
  -7%	-3%

Following part:
Every second line gives: Vaccinia Venus	Vaccinia mCherry
> CC(C)n1nc(C(=O)Nc2nc3ccc(S(C)(=O)=O)cc3s2)c2ccccc2c1=O
  -4%	i
> CC(=NNc1nc2ccccc2o1)c1ncccn1
  ?	0.71µM*
> CCc1cc(Cn2nc(-c3ccccc3)cc2C(=O)NCc2ccc(C)cc2)on1
  -3%	-8%
> O=C(Nc1ccccc1N1CCN(C(=O)c2ccc(Cl)cc2)CC1)c1ccc([N+](=O)[O-])o1
  ?	?
> CCCCC(=O)Nc1ccc(N2CCN(C(=O)CC)CC2)cc1
  -12%	-14%

The order is random. About 0.87% of those tested had a hit in this group.
